# HIV Env fusion: HIV envelope-mediated fusion inhibition. 1.1% of 360,000 active. AID 651610. HeLa-JRFL Env/CEM21 cell fusion, luciferase. inhibition, % at 12.3 µM;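 active means mean replicate inhibition score of at least 50 and every replicate individually at or above 50; inconclusive means only one of the two criteria met; inactive means mean below 50 and not all replicates reaching 50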;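 further: 0% = plate neutral controls and 100% = maraviroc near 300 nM; one replicate is shown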
# eIF4H FP inh: inhibitors of RNA binding by human eIF4H | AID 2012 | 0.94% of 290,000 active | Q15056 | eIF4H fluorescence polarization binding assay | inhibition, % at 35 µM;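 active means 50% or more with normal probe brightness, or confirmed in later tests; inconclusive means above 50% with abnormal brightness, or retests that disagree; inactive means below 50% or failed in later tests; about a fifth of its hits are not listed in these tables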;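 further: calls also rest on retests at 20 µM and on dose response follow-up; 0% = protein and probe with vehicle and 100% = probe without protein; strong numbers were not always called active; many hits fall short of the cut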
# UUG fidelity: alters start codon recognition fidelity in yeast; S. cerevisiae UUG-firefly luciferase reporter, luminescence/redox ratio; activity score, % at 18.7 µM; 0.13% of 350,000 active; AID 602363;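 active means replicate mean at a twofold rise or more, about +100% in these data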;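 further: firefly luciferase made from a UUG start codon reports start codon fidelity; reporter light over untreated wells divided by growth signal over untreated wells; some hits fall short of that in this replicate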
# MT1-MMP act inh: blocks activation of human MT1-MMP. AID 651647. 0.061% of 360,000 active. GFP/RFP ratio change, % at 20 µM. HT1080 RFP-PRO-GFP cells, GFP/RFP ratio fluorescence, overnight; percent of plate control window, DMSO zero;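 active means GFP/RFP ratio change of at least 30% with cell ATP level not reduced by more than half and red fluorescence within 50% of control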; further: strong numbers were not always called active
#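 Assay system: HT1080 RFP-PRO-GFP cells. Benchmarks: DMSO vehicle wells and RFP-L50D-GFP reporter cell wells. Times: overnight cell settling, then overnight compound exposure, 37 °C, 5% CO2. Compound: 20 µM single dose, 1% DMSO. Read-out basis: GFP/RFP fluorescence ratio.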
# PABP FP inh: blocks human PABP binding to poly(A) RNA; P11940; fluorescence polarization; inhibition, % at 35 µM; 1% of 290,000 active; AID 2014;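 active means 50% or more with normal probe brightness, or confirmed in later tests; inconclusive means above 50% with abnormal brightness, or retests that disagree; inactive means below 50% or failed in later tests; about a fifth of its hits are not listed in these tables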;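 further: calls also rest on retests at 20 µM and on dose response follow-up; controls were probe without protein and protein plus probe with vehicle; some compounds called inactive have numbers as strong as hits; many hits fall short of the cut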
# Rce1 inhib: yeast Ras-converting enzyme inhibition | 0.27% of 290,000 active | Q03530 | calls only | AID 2563 | yeast membranes, quenched prenylated peptide cleavage fluorescence;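 active means fall in fluorescence gain of 50% or more versus controls, with final raw signal at or below 3038400; inconclusive means same 50% fall but final raw signal above 3038400; inactive means fall in fluorescence gain under 50%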;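 further: plate controls were neutral control wells for no effect and wells lacking membranes for full effect; tested at 10 µM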
# Target sequence (Q03530 whole entry, looked up): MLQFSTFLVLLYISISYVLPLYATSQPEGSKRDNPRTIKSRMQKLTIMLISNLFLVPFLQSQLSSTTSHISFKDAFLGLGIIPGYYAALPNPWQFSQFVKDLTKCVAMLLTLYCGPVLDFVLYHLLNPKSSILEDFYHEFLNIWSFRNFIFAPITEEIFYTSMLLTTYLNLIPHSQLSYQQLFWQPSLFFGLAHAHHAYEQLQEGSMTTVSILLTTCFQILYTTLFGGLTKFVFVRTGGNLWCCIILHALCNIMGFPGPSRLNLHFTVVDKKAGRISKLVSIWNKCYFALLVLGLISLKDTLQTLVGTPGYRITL
# CSC inhib: cancer stem cell inhibition | 1.1% of 300,000 active | inhibition, % at 7.5 µM | cancer stem cell-like cells viability, luminescence;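 active means mean at 75% or more and at least half the replicates too; inconclusive means mean and replicates disagree; tested in HMLE shEcad cells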;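 further: 0% = median of negative and 100% = median of positive control wells; the first replicate is given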
# eIF4H FP inh retest: further read-out of eIF4H FP inh, marked with its call; inhibition, %; compound at 20 µM; confirmation average;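 mean of two retest wells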
# PABP FP inh retest: also measured in PABP FP inh; calls as there; inhibition, %; compound at 20 µM; confirmation repeats;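 mean of two retest wells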
# MT1-MMP act inh RFP: recorded beside MT1-MMP act inh, whose call it bears; RFP signal change, %; measured here: RFP expression control read;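 0 = vehicle wells; hits needed this value within 50% of zero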
# Numbers without * were called inactive; i = inactive; ? = inconclusive; / = not tested or not shown; & = joins results of further samples.
SMILES,HIV Env fusion,eIF4H FP inh,UUG fidelity,MT1-MMP act inh,MT1-MMP act inh RFP,PABP FP inh,Rce1 inhib,CSC inhib,others
O=C(O)COc1ccc(/C=N/NC(=O)c2ccc(-c3csc(Nc4ccc(Cl)cc4)n3)cc2)cc1,-5,98*,-11,4,3,6,i,/,eIF4H FP inh retest=86*;PABP FP inh retest=-4
Cc1ccc(C(C[N+](=O)[O-])Sc2ccc(N)cc2)cc1 (configuration not stated),-170,-9,-17,3,-3,1,i,65,
O=C(O)c1cccnc1Sc1ccccc1,20,0,-2,1,4,-1,i,-11,
COc1ccc(CNC(=O)C(OC(=O)c2cccs2)C(C)C)cc1 (configuration not stated),18,-12,0,-1,5,11,i,-12,
COc1cc2sc(-c3ccc(S(C)(=O)=O)cc3)c(C#CCO)c2cc1OC,1,/,36,-3,5,/,/,10,
CCN(C[C@H]1N[C@@](CC)(C(=O)OC)[C@H]2C(=O)N(C)C(=O)[C@@H]12)S(=O)(=O)c1ccccc1,-4,/,2,2,5,/,/,/,
O=C(CSc1ccc(Cl)cc1)N1CCCC1,-30,-5,/,5,6,7,i,-1,
CC(=O)Nc1cccc(C(=O)N2CCN(S(=O)(=O)c3ccc4ccccc4c3)CC2)c1,-44,-12,7,2,-1,-5,i,-8,
O=C(NC1CC1)C1=C[C@H](c2ccc(C(F)(F)F)cc2)C[C@H](OCCCCO)O1,-6,/,-3,10,7,/,i,0,
Cc1ccc(-c2nc(CC(=O)Nc3cccc(S(=O)(=O)NC4=NCCC4)c3)cs2)cc1,/,/,-12,5,-4,/,/,5,
CCCCNc1nc(N(C)c2ccccc2)nc(-n2ccnc2)n1,-44,2,-20,-8,-12,-2,i,-16,
O=C(NC1CCCc2ccccc21)c1ccccc1OC(F)F (configuration not stated),-24,-24,-10,-1,-1,7,i,-1,
NC(=O)c1ccc(NC(=O)CCCc2nc(-c3ccccc3Cl)no2)cc1,15,-1,-12,-6,-10,-4,i,2,
O=c1oc2ccc3ccccc3c2cc1-c1nnc(-c2cccs2)o1,-2,-4,-11,8,5,7,i,-8,
CC1CCN(S(=O)(=O)N2CCC(C(=O)NCc3ccc(F)cc3Cl)CC2)CC1,-36,/,-12,2,-2,/,/,/,
CCCCN1C[C@H](Cc2ccccc2)[C@@H](CC(=O)NC)C1=O,-23,/,-7,1,7,/,/,/,
Cc1cc(C)nc(-n2ncc3c2CC(c2cccc(Cl)c2)CC3=O)n1 (configuration not stated),31,-4,-24,-6,-8,-3,i,81*,
N#Cc1c(-n2cccc2/C=N/O)sc2c1CCCC2,/,7,/,-6,-10,0,i,-5,
CC(OC(=O)c1ccc2c(=O)n3c(nc2c1)CCCCC3)C(N)=O (configuration not stated),-9,7,/,2,3,10,i,-5,
CC(=O)NCCNc1nc(NCc2ccccc2)nc2ccsc12,-19,/,-18,2,1,/,/,/,
CCCn1nc2ccccc2c1P(=N)(N1CCOCC1)N1CCOCC1,-11,-2,/,5,4,-10,i,-7,
COc1ccc(CNC(=S)Nc2cc(C)cc(C)c2)cc1,9,0,-22,-6,-3,3,i,/,
COc1ccc(N2CCN(c3cc(C)c4ccc(C)cc4n3)CC2)cc1,13,2,13,/,/,?,i,?,
C[C@@H]1CN([C@H](C)CO)C(=O)c2cc(Br)cnc2O[C@@H]1CN(C)C(=O)NC1CCCC1,-25,/,-12&33,1,4,/,/,/,

# Continued, overlapping the part above by two compounds.
SMILES,HIV Env fusion,eIF4H FP inh,UUG fidelity,MT1-MMP act inh,MT1-MMP act inh RFP,PABP FP inh,Rce1 inhib,CSC inhib,others
COc1ccc(N2CCN(c3cc(C)c4ccc(C)cc4n3)CC2)cc1,13,2,13,/,/,?,i,?,
C[C@@H]1CN([C@H](C)CO)C(=O)c2cc(Br)cnc2O[C@@H]1CN(C)C(=O)NC1CCCC1,-25,/,-12&33,1,4,/,/,/,
COc1ccc(CCN2C(=O)CN=C2Nc2ccc(F)cc2)cc1OC,14,8,/,3,6,-12,i,1,
COCC(=O)NCc1nc2ccccc2n1Cc1ccccc1F,-71,-1,-18,1,-1,4,i,-13,
CC(C)=CCC/C(C)=C/CNC(=O)C[C@H]1C[C@H](C(=O)N2CCOCC2)[C@@]2(C)c3[nH]c4ccc(Cl)cc4c3CCN2C1=O,8,/,-16,-24,-30,/,/,/,
CCn1c(=N)n(CC(O)c2cccs2)c2ccccc21 (configuration not stated),-18,-1,/,-4,1,1,i,4,
Cc1ccc([C@H]2C[C@H](O)[C@@H](n3cc(-c4ccc(F)cc4)nn3)CN2C(=O)c2cccs2)cc1,-27,/,7,1,-1,/,/,/,
COc1ccc(CC(N)c2csc(NC(=O)Nc3ccc(F)cc3)n2)cc1 (configuration not stated),37,/,-13,-6,-17,/,/,/,
O=C(O)c1ccccc1SC1CC(=O)N(c2ccccc2)C1=O (configuration not stated),-11,-6,/,-8,-1,14,i,-6,
CC(C)CC(NC(=O)c1cccc(Cl)c1)C(=O)O (configuration not stated),9,-2,1,3,1,0,i,9,
Cc1cccc2sc(N(CCCN(C)C)C(=O)c3ccco3)nc12,-13,5,-10,4,0,-10,i,23,
CC(Nc1cccc2ccccc12)C(=O)N/N=C/c1ccc([N+](=O)[O-])cc1 (configuration not stated),-15,3,-7,16,-1,7,i,-4,
CC(=O)c1ccc(NC(=S)NCCc2ccccn2)cc1,-11,-5,/,5,3,-9,i,-9,
CCOc1ccccc1CNC(=O)C1CCN(c2nn3c(=O)cc(C)nc3s2)CC1,-4,0,-8,2,2,9,i,4,
NC(=O)c1ccc(NC(=O)COC(=O)c2ccc3c(c2)OCO3)cc1,-6,/,-20,4,6,/,/,-7,
CCc1ccc(NC(=O)c2ccc(S(=O)(=O)NCc3cccnc3)cc2)cc1,-11,-7,-12,4,-11,12,i,6,
O=C(COC(=O)c1cc([N+](=O)[O-])ccc1N1CCOCC1)Nc1ccc(Cl)cn1,-165,5,8,1,-3,8,i,86*,
O=Cc1ccc(C(=O)OCC(=O)NCc2ccco2)cc1,-5,/,-15,0,1,/,/,-6,
COc1cc(NC(=O)CC2NCCNC2=O)cc(OC)c1 (configuration not stated),-22,2,/,4,3,-1,i,-2,
C=CCOc1ccc(CNc2ccc3[nH]c(=O)[nH]c3c2)cc1OCC,16,5,/,-12,-4,-9,i,-14,
O=C(O)C1Oc2ccccc2C1c1ccccc1 (configuration not stated),?,/,-23,-1,4,/,/,/,
COc1ccc(N(Cc2cc3cc(OC)ccc3[nH]c2=O)C(=O)C2CCCO2)cc1 (configuration not stated),/,4,-6,-1,0,6,i,0,
Cc1ccc(-c2nn(CC(=O)Nc3ccc4c(c3)nc3n4CCOC3)c(=O)c3ccccc23)cc1,-17,-11,-15,2,6,2,i,23,
COc1ccc(/C=C(\NC(=O)c2ccccc2)C(=O)OCC2CCCN3CCCCC23)cc1OC (configuration not stated),5,-7,/,1,6,2,i,-7,
COc1ccc(C2=NN(C(=O)CN3CCOCC3)C(c3nc4ccccc4[nH]3)C2)cc1 (configuration not stated),-26,6,/,0,3,15,i,3,
CN(C)C(=O)CSc1ncccc1-c1nc2ccccc2[nH]1,6,-4,0,2,3,7,i,-6,

# By substructure: the entries above containing a furan ring, fused or not.
SMILES,HIV Env fusion,eIF4H FP inh,UUG fidelity,MT1-MMP act inh,MT1-MMP act inh RFP,PABP FP inh,Rce1 inhib,CSC inhib,others
Cc1cccc2sc(N(CCCN(C)C)C(=O)c3ccco3)nc12,-13,5,-10,4,0,-10,i,23,
O=Cc1ccc(C(=O)OCC(=O)NCc2ccco2)cc1,-5,/,-15,0,1,/,/,-6,

# 3 compounds drawn at random from those above, as already listed:
SMILES,HIV Env fusion,eIF4H FP inh,UUG fidelity,MT1-MMP act inh,MT1-MMP act inh RFP,PABP FP inh,Rce1 inhib,CSC inhib,others
Cc1ccc(-c2nn(CC(=O)Nc3ccc4c(c3)nc3n4CCOC3)c(=O)c3ccccc23)cc1,-17,-11,-15,2,6,2,i,23,
O=Cc1ccc(C(=O)OCC(=O)NCc2ccco2)cc1,-5,/,-15,0,1,/,/,-6,
COc1ccc(N(Cc2cc3cc(OC)ccc3[nH]c2=O)C(=O)C2CCCO2)cc1 (configuration not stated),/,4,-6,-1,0,6,i,0,

# Next part
SMILES,HIV Env fusion,eIF4H FP inh,UUG fidelity,MT1-MMP act inh,MT1-MMP act inh RFP,PABP FP inh,Rce1 inhib,CSC inhib,others
Cn1c(CNC(=O)c2ccco2)nnc1SCC(=O)Nc1cccc(Br)c1,-25,1,-19,0,2,0,i,/,
CNC(=S)N/N=C(\C)c1ccc2c(c1)OCO2,-18,8,/,-3,0,1,i,-10,
COc1cccc(/C=C(/C(=O)OCC(=O)NCC2CCCO2)c2ccccc2)c1 (configuration not stated),11,4,/,-1,-4,3,i,-13,
O=C1CCC(c2ccccc2)(c2ccccc2)CC1,10,9,-15,-2,1,11,i,-4,
O=C(Oc1ccccc1)c1cccc2cccc(C(=O)Oc3ccccc3)c12,16,4,/,/,/,11,i,/,
O=C(N/N=C/c1cc([N+](=O)[O-])c(N2CCOCC2)cc1N1CCOCC1)c1cccnc1,5,2,/,2,0,75,i,8,eIF4H FP inh retest=0;PABP FP inh retest=-7
Cc1ccccc1-c1nc(CS(=O)CC(=O)NCc2ccc3c(c2)OCO3)c(C)o1 (configuration not stated),6,-15,-6,-6,-3,12,i,-2,
COc1cccc(-n2c(=S)[nH]c3c(oc4ccccc43)c2=O)c1,-8,-2,/,1,3,3,i,-5,
Cc1ccccc1C(=O)NC1CCN(CC(=O)Nc2ccc(N(C)C)cc2)CC1,-38,-15,12,3,6,-4,i,-15,
O=C(Nc1cccc(F)c1)Nc1ccc2c(c1)C(=O)OC2,-19,-2,-16,8,-6,-16,i,-3,
CC(=O)Nc1cccc(N=NN2CCOCC2)c1,11,1,/,4,4,1,i,14,
CCc1nc2ccc(C(=O)N3CCN(c4ccccc4F)CC3)cc2nc1CC,-4,2,-10,2,-1,-8,i,20,
CCOc1ccc(NC(=O)C(=O)NCc2ccncc2)cc1,3,-7,/,3,5,-1,i,-3,
Cc1ccc(S(=O)(=O)NCC(=O)N2CCCC2C(=O)O)cc1 (configuration not stated),-14,-3,-16,4,6,9,i,-15,
CC12CCC(C(=O)N3CCc4ccccc43)(CC1=O)C2(C)C (configuration not stated),/,-3,15,24,1,3,i,11,
COc1ccc(-c2cc(=O)c3c(O)cc(O)cc3o2)cc1,-123,/,-9,-12,-15,/,/,2,
CCCCOc1ccccc1C(=O)N(Cc1ccc(C)o1)C1CCS(=O)(=O)C1 (configuration not stated),35,2,-5,-5,-2,-2,i,-6,

# Source: PubChem (several laboratories)
